S aureus helic – blocks Staphylococcus aureus DNA helicase | 0.05% of 120,000 active | purified S. aureus helicase, fluorescence unwinding assay; about half of the hits fall short of the stated cut | inhibition, %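 (tested at about 80 µM)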;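 active means both duplicates at 50% or more, or one of them with a favoured structure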;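 further: 0% = mean of negative control wells and 100% = mean of positive control wells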
MgrA-DNA mod – modulators of Staphylococcus aureus MgrA DNA binding. inhibition, %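 (about 10 µg/mL by stock and volumes)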. fluorescence polarization. 0.13% of 84,000 active;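 active means above 50% in either of two replicates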;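 further: 0% = protein plus DNA without compound and 100% = DNA alone without protein; higher means less MgrA bound to DNA so lower polarization; one replicate is shown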
The depositor's hits bear a star; . = not tested or not shown. These rows are one share of the data, so the mix of outcomes need not match the whole.

The first seven compounds (preview)
SMILES	S aureus helic	MgrA-DNA mod
CCCCC1=NN(C(=O)C2CC2)C(O)(C(F)(F)F)C1 (stereo not drawn)	-1	-1.6
O=C(Nc1ccc(C(=O)N2CCOCC2)cc1)c1ccc2c(c1)OCO2	3	3.0
O=C(O)C1CC=CCC1C(=O)N1CCCC1 (stereo not drawn)	3	2.5
CCN(CC)C(=O)CSc1nc2ccccc2c(=O)n1CC	5	-3.1
N#CC1(C#N)C2CCCCC23OC(=N)C1(C#N)C(c1cccnc1)O3 (stereo not drawn)	-3	7.2
COc1cc(OC)c2c(O)cc(=O)[nH]c2c1	8	2.3
COC(=O)c1ccc2[nH]c3c(c2c1)CCCC3	10	.

Main list, previewed entries included:
SMILES	S aureus helic	MgrA-DNA mod
CCCCC1=NN(C(=O)C2CC2)C(O)(C(F)(F)F)C1 (stereo not drawn)	-1	-1.6
O=C(Nc1ccc(C(=O)N2CCOCC2)cc1)c1ccc2c(c1)OCO2	3	3.0
O=C(O)C1CC=CCC1C(=O)N1CCCC1 (stereo not drawn)	3	2.5
CCN(CC)C(=O)CSc1nc2ccccc2c(=O)n1CC	5	-3.1
N#CC1(C#N)C2CCCCC23OC(=N)C1(C#N)C(c1cccnc1)O3 (stereo not drawn)	-3	7.2
COc1cc(OC)c2c(O)cc(=O)[nH]c2c1	8	2.3
COC(=O)c1ccc2[nH]c3c(c2c1)CCCC3	10	.
Cc1ccc(NC(=O)C2=CSCCO2)cc1	-6	.
Cc1cc(C(=O)CSc2n[nH]c(N)n2)c(C)n1-c1cccc(S(=O)(=O)N2CCOCC2)c1	4	.
O=C(c1cnc2ccccc2n1)N1CCC(O)(c2ccc(Cl)cc2)CC1	.	3.0
COc1ccc(/C=C2\C(=O)N(C)c3ccccc32)cc1O	-2	-1.0
Cc1ccc(NC(=O)CCn2c(=O)[nH]c3ccsc3c2=O)cc1	5	2.4
Cc1sc2nc(SCCC(=O)NC3CCCCC3)[nH]c(=O)c2c1C	11	.
Cc1ccc2[nH]cc(NC(=O)N3CCCCC3)c(=O)c2c1	-5	0.7
O=C(Nc1cccc2ccccc12)N1CCC(n2c(=O)[nH]c3ccccc32)CC1	10	.
CN(C)S(=O)(=O)c1ccc(C(=O)NCc2ccccn2)cc1	-12	.
COc1ccc(CCC(=O)N2C(=O)c3cccc(N)c3C2=O)cc1OC	-11	.
O=C(NCc1ccncc1)/C(=C/c1ccc(Cl)cc1)c1ccc(F)cc1	-1	-0.2
CC(=O)Nc1ccc(NC(=O)CCC2CCCC2)cc1	1	-1.1
O=C(Nc1ccc(Cl)cc1Cl)C1CC(=O)N(C2CCCCC2)C1 (stereo not drawn)	-4	0.2
CCNc1nc(NC(C)C)nc(NC(N)NOC)n1 (stereo not drawn)	-9	1.0
COc1ccc(N(C(=O)c2ccncc2)S(=O)(=O)c2cccs2)cc1	-18	.
Cc1cccc(NNC(=O)C2CCCCC2)c1	7	.
CC1CCC(C(=O)Nc2cc3c(cc2N2CCCCC2)n(C)c(=O)c(=O)n3C)CC1 (stereo not drawn)	-11	.
BrC12CC3CC(CC(C3)C1)C2	.	4.2
COc1cccc(OC)c1C(=O)N1CCN(Cc2ccccc2F)CC1	-21	.
Cc1cc(C(=O)COc2ncnc3c2cnn3-c2ccccc2)c(C)n1C1CC1	-28	.
CCCN(Cc1nnc(-c2ccccc2Cl)o1)C(=O)c1ccc2[nH]c(C)c(C)c2c1	7	.
CC(C)(C)c1cc(C(=O)/C=C2/NC(=O)CS2)no1	.	-1.4
COC(=O)c1cc(S(=O)(=O)/C=C/c2ccccc2)c(Cl)cc1Cl	14	-1.3
COc1ccc(-c2ccc(C=C(C#N)C#N)s2)cc1	.	-0.2
CC(C)c1ccc(NS(=O)(=O)c2ccc(-n3cccn3)cc2)cc1	12	-0.6
COc1ccc(C2=N/C(=C/c3ccco3)C(=O)O2)cc1OC	3	.
CC(C)(CO)NS(=O)(=O)c1ccc2c(c1)C(=NO)c1cc(S(=O)(=O)NC(C)(C)CO)ccc1-2	-15	.
CN=C1SC(CC(=O)NCc2ccccc2)C(=O)N1/N=C/c1c(C)nn(Cc2ccccc2)c1C (stereo not drawn)	-2	.
Cn1ccnc1SCC(=O)NC(c1ccccc1)c1ccccc1	-8	.
Cc1c(-c2nnnn2-c2ccccc2)cnc2ccccc12	.	-1.1
S=c1sc2ccccc2n1CN1CCN(c2ccccn2)CC1	-6	.
CC(NC(=O)OCC1c2ccccc2-c2ccccc21)C(=O)O (stereo not drawn)	-1	.
CCCCN(CC)c1nc(N)c(C#N)c(CC#N)c1C#N	-89	.
Cn1c(SCC(=O)c2cc(Cl)c(Cl)s2)nnc1-c1ccco1	.	4.5
CCC(C)[C@@H](C(=O)NCc1ccccc1C)N1Cc2ccccc2C1=O (stereo partly drawn)	12	2.3
CC(=O)N1CCN(c2ccc(Oc3ccnc4cc(Cl)ccc34)cc2)CC1	5	.
CCC1NCc2c(sc3c2CCCC3)-n2cccc21 (stereo not drawn)	5	.
Cc1cc(NCn2ncc3ccccc3c2=O)ccc1Br	.	0.6
O=C(O)C1CCN(c2ncc(C(F)(F)F)cc2Cl)CC1	.	0.2
COc1ccc(NC(=O)NC2CCCN2S(=O)(=O)c2ccc(Cl)cc2)cc1 (stereo not drawn)	-11	.
Cn1cccc1CC(=O)N/N=C\c1ccccc1	7	.
Cc1c(C#N)c(Sc2ccccn2)nc2ccccc12	-18	.
CCN(CC)S(=O)(=O)c1cc(C(=O)O)ccc1C	-22	.

(next part)
SMILES	S aureus helic	MgrA-DNA mod
CC(C)N(Cc1nnc(-c2ccccc2)o1)C(=O)/C=C/c1cccs1	-7	.
O=C(O)c1[nH]c2ccc([N+](=O)[O-])cc2c1-c1ccccc1	.	-0.2
CCOC(=O)c1nn(-c2ccc(Cl)cc2)cc1O	-8	.
c1ccc(C2=NNC(c3ccccc3)C2)cc1 (stereo not drawn)	7	.
CCCc1cc(=O)n2[nH]cc(-c3ccc(Cl)cc3)c2n1	36	.
Nc1cc(N)cc(C(=O)OCN2C(=O)c3ccccc3C2=O)c1	1	2.6
Cc1ccc2cc3c(N)nn(C(=O)c4ccncc4)c3nc2c1	5	.
O=c1c(Cl)c(-n2cccn2)cnn1-c1ccc(Cl)cc1Cl	16	.
Cc1csc(=Nc2cccnc2)n1Cc1ccco1	1	.
Cc1ccc2c(COC(=O)CCn3c(C)csc3=O)cc(=O)oc2c1	0	.
O=C1C[C@@H]2[C@@H](CO)[C@H](OC(=O)c3ccc(-c4ccccc4)cc3)C[C@@H]2O1	-4	-3.2
CN(C)P(=NC(=S)N1CCCC1)(N(C)C)C12CC3CC(CC(C3)C1)C2	5	.
CC(C(=O)NC(N)=O)N1CCc2ccccc21 (stereo not drawn)	-2	.
CCn1c(Cc2ccccc2)nnc1SCc1cccc(C(=O)O)c1	13	0.0
Cn1c(-c2ccco2)nn(C2CC(=O)C3OCC2O3)c1=S (stereo not drawn)	-1	-0.8
Cc1cc(=O)oc2cc(OCC(=O)C(C)(C)C)c(Cl)cc12	-4	-0.6
CC12C=CC(CO)(O1)C1C(=O)N(c3ccc(Br)cc3)C(=O)C12 (stereo not drawn)	-1	5.0
COC(=O)c1sc(S(C)(=O)=O)c(C#N)c1-c1cccs1	-38	.
CC(C)(C)c1cc(O)cc(C(C)(C)C)c1	0	0.1
CCC(=O)Nc1nc2ccc3nc(SC)sc3c2s1	6	.
COC(=O)c1c(O)c(C=Nc2ccc(C)cc2)c(=O)n2c1CCC2	3	.
N#Cc1c(N)nc(SCC(=O)c2ccc3ccccc3c2)c(C#N)c1-c1cccc(F)c1	13	-2.0
Cc1cccc(C)c1NC1=NC(C)(C)N=C(N)N1	-30	.
CCn1c(SCCOc2ccc(OC)cc2)nc2ccccc21	-5	0.1
CC(C)Cn1c(N)c(C(=O)COC(=O)c2ccncc2)c(=O)n(C)c1=O	-18	.
COc1cccc(Cn2c(=O)n(Cc3ccccc3)c(=O)c3cccnc32)c1	-1	9.8
CCn1nnc2cc(C(=O)OCC(=O)Nc3cc(F)ccc3F)ccc21	-4	.
COc1cc(N2CN=c3s/c(=C\C=C\c4ccccc4)c(=O)n3C2)cc(OC)c1OC	5	1.2
CC1(C)Cc2c(sc(N3C(=O)C4CC=C(Cl)CC4C3=O)c2C#N)CO1 (stereo not drawn)	8	.
CCC(=O)n1nc(-c2ccccc2)nc1NCc1ccco1	4	-1.3
CN1CCCN(C(=O)c2ccc3c(c2)OCO3)c2nc3ccccc3nc21	24	.
Cc1cc(C)n(CC(=O)NCc2cc(-c3nn(C)c(=O)c4ccccc34)ccc2C)n1	-7	.
CCOc1ccc(-n2c(C)nc3cc(C(=O)NCc4ccccc4Cl)ccc32)cc1	-5	-0.2
Cc1ccc2nc(-c3ccc(-c4ccccn4)s3)cn2c1	.	0.0
CC(O)(C#CCN1CCOCC1)c1ccccc1 (stereo not drawn)	2	0.3
O=C(O)C1=CC(c2ccccc2)n2nnnc2N1 (stereo not drawn)	7	-2.7
CC(C)c1cc(N=NC(N)=O)cc(C(C)C)c1O	10	.
Cn1c(=O)[nH]c2nnc(-c3ccccn3)nc2c1=O	24	-0.4
CC1Cc2cccc3c(O)cc(=O)n1c23 (stereo not drawn)	8	.
CC(C)CNC(=O)N1c2ccccc2Sc2ccccc21	9	1.2
Cc1n[nH]c(C)c1-c1ccc(Cl)c(C(=O)O)c1	3	-1.0
CCNC(=S)n1ncc(C(=O)OCC)c1N	31	.
CCC(O)C1=C(c2cccs2)Oc2ccccc2C1c1ccccc1C (stereo not drawn)	13	2.3
COc1ccc(COn2c(=O)c(C)[n+]([O-])c3ccccc32)cc1OC	18	-0.2
Cc1ccc(Cn2c(=O)n(CCC(=O)N3CCc4ccccc4C3)c(=O)c3ccccc32)cc1	13	-2.0
CC(Oc1ccccc1Cl)C(=O)N1CCCc2ccccc21 (stereo not drawn)	5	.
CN(CCO)Cc1cc(N2CCN(C(=O)c3ccco3)CC2)c2c3c(onc13)-c1ccccc1C2=O	-121	.
O=c1c2[nH]cnc2n(-c2ccccc2)c(=O)n1Cc1ccccc1	-25	.
Cc1ccc(NC(=O)C(Cc2ccccc2)NC(=O)c2ccco2)cc1 (stereo not drawn)	8	1.2
CCOc1ccc(CC(=O)NCCn2ccc3ccccc32)cc1	-18	.

Entries of single compounds, quoted from the list. Values in the order: S aureus helic	MgrA-DNA mod
CCOc1ccc(CC(=O)NCCn2ccc3ccccc32)cc1 is listed as -18	.
CC(Oc1ccccc1Cl)C(=O)N1CCCc2ccccc21 (stereo not drawn) is listed as 5	.
Cc1n[nH]c(C)c1-c1ccc(Cl)c(C(=O)O)c1 is listed as 3	-1.0

Next records follow.
SMILES	S aureus helic	MgrA-DNA mod
c1ccc(COc2ccccc2OCc2ccccc2)cc1	-17	0.0
O=C(CN1CCc2sccc2C1c1cccs1)Nc1ccc2c(c1)OCO2 (stereo not drawn)	-5	.
CCOC(=O)c1sc2nc(CSc3nncn3-c3ccccc3)[nH]c(=O)c2c1C	-16	.
O=CNCCCc1nc2ccccc2n1Cc1ccc(F)cc1	14	-0.8
O=C1CN(Cc2ccccc2)C(=NCc2ccco2)S1	0	-1.6
CCOC(=O)C1=C(C)NC2=C(C(=O)CC(c3ccco3)C2)C1c1cccs1 (stereo not drawn)	4	-3.0
Cc1ccc(-c2c(C(=O)N3CCCCC3)oc(=O)c3ccccc23)cc1	12	0.2
CN(C)c1nnc2c(Cl)cc(C(F)(F)F)cn12	.	2.7
COc1ccc(C(=O)COC(=O)c2ccc(NC(C)=O)cc2)c(OC)c1	-3	.
CC(C)NC(=O)CN1CCN(c2nc(Cc3ccc(Cl)cc3Cl)nc3c2nnn3C)CC1	-11	.
Cc1nc2cc(Cl)ccc2n1-c1ccccc1	-3	-2.4
Cc1nn(-c2ccccc2)c2[nH]c(C(F)(F)F)cc(=O)c12	0	3.6
COc1ccc(Cc2nc(C(C)(C)C)cs2)cc1	.	-1.7
Clc1ncn(CCOc2ccccc2)c1Cl	-8	0.4
COC(=O)C1c2ccccc2-c2ccccc21	-3	.
CSCCC(NC(=O)c1cccnc1SC)C(=O)O (stereo not drawn)	.	-0.1
O=C(O)c1oc2ccccc2c1-n1cccc1	.	0.5
NC(=O)c1ccc(NC(=O)COC(=O)Cc2ccc(-c3ccccc3)cc2)cc1	19	3.9
COc1ccc(C)cc1S(=O)(=O)NNc1nc(C)cc(C)n1	-4	.
N#CCn1c(COC(=O)c2cccs2)nc2ccccc2c1=O	-6	.
Oc1ccccc1CN1CCCN(Cc2ccccc2O)C1	11	1.6
Cc1c(C(=O)N2CCc3ccccc32)sc2nc3n(c(=O)c12)CCC3	2	.
COCCn1c(C)nc2c(c1=O)c1nc3ccccc3nc1n2-c1ccc(Cl)c(Cl)c1	1	.
Cc1nn(CC(=O)NCC2CCCO2)c(=O)c2cc3occc3n12 (stereo not drawn)	4	-1.8
O=S(=O)(c1ccc2nsnc2c1)N1CCCCC1	13	0.2
CCOC(=O)c1c(C)n(CC)c2cc(Br)c(O)cc12	8	4.1
Cc1snnc1C(=O)Oc1ccccc1-c1nnco1	.	3.5
CC(=O)N1CCc2cc(NC(=O)CSc3nnc4ccccn34)ccc21	14	.
CC(C)CNC(=O)CSc1ncnc2ccccc12	8	.
COc1ccc(C2Nc3ccccc3C(=O)N2c2ccccc2)cc1COc1ccccn1 (stereo not drawn)	.	0.2
COc1ccc(Oc2ccc(C(F)(F)F)cc2N)cc1	.	0.6
C[N+]1(CC[N+]2(C)CCCCC2)CCCCC1	13	-1.9
CN(C)c1cc(N=C2CCCN2c2ccccc2)c2ccccc2n1	9	1.9
